# Mtb growth: Mycobacterium tuberculosis H37Rv growth inhibition, cell based, confirmatory dose response (AID 1949); most inactive calls were filed without a number and no value below 0 was filed; 100,000 compounds, 1.6% hits; inhibition, % at 10 µg/mL, or IC50 in µg/mL where a hit was titrated; M. tuberculosis H37Rv growth inhibition;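 active means confirmed in a dose series; inconclusive means about 50% or more but not retested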;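 further: bacteria grown 7 days with compound before Alamar blue readout; 0% = untreated bacteria and 100% = reference antibiotic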
# Numbers without * were called inactive; i = inactive; ? = inconclusive. A portion of the library. The share of hits here may be higher or lower than overall.
Molecule	Mtb growth
COc1cc(/C=C(/C#N)c2nc3ccc(C)cc3[nH]2)cc2c1OCO2	i
O=C(CSC1CC(=O)N(c2ccccc2)C1=O)Nc1ccc(Cl)c(Cl)c1 (stereo not given)	i
Cc1ccc(NC(=O)CCSc2ccc3ccccc3n2)cc1	i
O=C(CCc1ccccc1)Nc1cccnc1	i
COc1cccc(C(=O)Nc2ccccc2C2CC2)c1	i
Cc1ccc(-c2csc(NC(=O)c3ccc(Cl)c(Cl)c3)n2)cc1	i
CCOC(=O)c1ccc(NC(=O)Nc2c(C)nn(Cc3ccc(Cl)c(Cl)c3)c2C)cc1	i
Nc1cc(=O)nc(SCC(=O)NCc2ccccc2)n1-c1ccccc1	5.2%
CC(C)(C)C(=O)Nc1ccc2c3c(cccc13)CC2	45.3%
COc1ccc(NC(=O)C2(c3ccccc3)CC2(Cl)Cl)c(OC)c1 (stereo not given)	i
Cc1ccc(NC(=S)NCCc2ccccc2)c(OC(F)F)c1	i
CC(O)c1nc2ccccc2n1CCOc1ccc(F)cc1 (stereo not given)	i
CCOC(=O)C1CCN(C(=O)CN(c2cc(Cl)ccc2OC)S(=O)(=O)c2ccccc2)CC1	i
Nc1ccc(Oc2cccc(Oc3ccc(N)cc3)c2)cc1	i
N#CCOc1ccc(C23CC4CC(CC(C4)C2)C3)cc1/C=C/c1nc(O)c([N+](=O)[O-])c(=O)[nH]1	38.2%
CC(=O)Nc1ccc(N2C(=O)CC(NC3CCN(Cc4ccccc4)CC3)C2=O)cc1 (stereo not given)	i
COc1ccc(C(=O)Nc2ccc(N3CCOCC3)c(Cl)c2)cc1OC	i
CC(Oc1ccc(Cl)cc1Cl)C(=O)Nc1nnc(Cc2ccccc2)s1 (stereo not given)	i
O=C(/C=C/c1ccc(Br)cc1)c1ccc2ccccc2c1O	i
COc1ccc(C(=O)Nc2sc(C(=O)OC(C)C)c(C)c2C(N)=O)cc1	i
CS(=O)(=O)Nc1cccc(-c2cn3ccccc3n2)c1	i
Cc1cc(Br)cc(C)c1NC(=O)CSc1nnc(-c2cc3cc(Cl)ccc3o2)n1C	i
COCCCNC(=O)CN(c1ccc(I)cc1)S(C)(=O)=O	i
Cc1ccc2c(C)nc(Nc3nccc(C)n3)nc2c1	0.1%
Cc1ccc(C2C(C#N)=C(N)N(c3ccccc3C(F)(F)F)C3=C2C(=O)CCC3)s1 (stereo not given)	1.4%
CCc1ccccc1NC(=O)c1ccc(OCC(=O)NCCc2ccc(OC)c(OC)c2)cc1	i
CCCOc1ccc2c(C(F)(F)F)cc(=O)oc2c1	i
COc1ccc(C(=O)Nn2c(SCC(=O)N3CCCC3)nc3ccccc3c2=O)cc1	i
CCOc1cc(C=O)cc(Br)c1OC(=O)Cc1ccccc1	i
Cc1ccc(CN(c2ccc(C(=O)Nc3c(C)cccc3C(C)C)cc2)S(C)(=O)=O)cc1	i
COC(=O)c1cccc(NC(=O)CN(c2ccc(OC)cc2OC)S(C)(=O)=O)c1C	i
C=CCc1cc(-c2nc3sc4c(c3c(=O)[nH]2)CCC(C)C4)cc(OC)c1O (stereo not given)	i
COc1ccc(C)cc1N(CC(=O)Nc1cccc(F)c1)S(=O)(=O)c1ccc(C)cc1	i
COc1ccccc1CNCc1ccc(OC)c(OCc2ccccc2)c1	i
O=C(OCc1ccco1)c1ccc(S(=O)(=O)N2CCCCC2)cc1	i
Nc1cccc(NC(=O)C23CC4CC(CC(C4)C2)C3)c1	i
CCOC(=O)c1ccc(NC(=O)COc2ccc3oc(=O)cc(C)c3c2)cc1	i
CC(C)(C)c1ccc(-c2n[nH]c(=S)n2CC2CCCO2)cc1 (stereo not given)	i
CN(C)c1ccc(-c2n[nH]c(=S)n2-c2ccccc2)cc1	i
N#C/C(=C/c1ccc(N2CCCC2)cc1)c1ccccc1F	22.2%
Cc1ccc(-n2ncc(C#N)c2/N=C/N2CCCCC2)cc1	10.2%
C=CCOc1ccccc1CNn1nnnc1N	i
O=C(CCC(=O)OCc1cccc(C(=O)Oc2ccccc2)c1)Nc1cccc2ccccc12	12.6µg/mL*
O=S(=O)(c1ccccc1)N1CCN(C2CCN(Cc3ccccc3)CC2)CC1	i
CSc1ccc(C(=S)N2CCN(c3ccccc3F)CC2)cc1	i
COCc1nnc(NC(=O)c2ccccc2Cl)s1	i
Cc1cccc(NC(=S)Nc2ccc(Cl)cc2)c1	10.4%
c1ccc(COc2ccc(OCCn3ccnc3)cc2)cc1	10.4µg/mL*
Cc1cccc(CNC(=O)c2ccccc2N)c1	1.4%
Cc1ccc(N2C(=O)CC(Sc3ccccc3C(=O)O)C2=O)c(Br)c1 (stereo not given)	i
CCCCOc1cccc(C(=O)Nc2ccc(F)c(Cl)c2)c1	i
NCCc1ccc(S(N)(=O)=O)cc1	i
N#C/C(=C/c1ccc(Cl)s1)c1ccc([N+](=O)[O-])cc1	i
O=C(Nc1cccc(C(=O)N2CCOCC2)c1)c1cncc(Br)c1	i
CC(Oc1ccccc1)c1nnc(SCC(=O)Nc2cc(Cl)c(Cl)cc2Cl)n1C (stereo not given)	i
Cc1ccc2nc(NC(=O)c3cnccn3)sc2c1	?
C=CCn1c(Oc2ccc(OC)cc2)nc2c1c(=O)n(C)c(=O)n2C	i
COc1ccc(Nc2nc(N)nc(CN3CCCCC3)n2)cc1	i
CC(=O)CCc1c(C)[nH]c2ccc(NC(C)=O)cc2c1=O	1.2%
COc1ccc(CCNC(=S)Nc2c(C)nn(C)c2C)cc1OC	i

# (list continues)
Molecule	Mtb growth
Cc1ccc(C(=O)CSc2cc(C)nc3nc(C)nn23)cc1	i
COc1ccc(CCNC(=O)C2CN(S(=O)(=O)c3ccccc3)CCN2S(=O)(=O)c2ccccc2)cc1 (stereo not given)	i
COc1cc(OC)cc(C(=O)Nc2ccc(S(=O)(=O)Nc3cc(C)nc(C)n3)cc2)c1	i
Cn1c2ccc(Br)cc2c2nnc(SCC(=O)Nc3nc4ccccc4s3)nc21	i
CCc1ccc(-c2cc(C(=O)Nc3c(C)n(C)n(-c4ccccc4)c3=O)c3ccccc3n2)s1	i
CC(C)(C)c1cc(CN2CCOCC2)c(C(=O)O)o1	i
CCC(C)NS(=O)(=O)c1ccc(NC(=O)C(Sc2ccccc2)c2ccccc2)cc1 (stereo not given)	?
O=C(c1ccco1)N1CCN(C(=O)c2ccc(COc3ccc(Cl)cc3Cl)o2)CC1	0.9%
COc1cccc2c1OC1=C(C(=O)CCC1)C2C1=C(O)CCCC1=O (stereo not given)	i
O=c1oc2ccccc2cc1-c1nc(-c2cccs2)cs1	i
C=CCN(CC=C)C(=O)CSc1nnc(N)s1	i
CCCCC(=O)Nc1ccc(C(=O)N2CCC(C(=O)OCC)CC2)cc1	i
O=C(CSc1ccc(Cl)cc1)Nc1ccccc1C(=O)NCc1ccco1	2.8%
COc1ccc(C2C3=C(CCCC3=O)Nc3ccccc3N2C(=O)c2ccccc2)cc1 (stereo not given)	i
Cn1c(=O)c2c(ncn2Cc2cccc(Br)c2)n(C)c1=O	i
C=CCNC(=O)c1ccccc1NC(=O)CN(c1cc(Cl)cc(Cl)c1)S(C)(=O)=O	i
COc1cc(NC(=S)NC(C)=O)ccc1NC(=O)C(C)C	i
Cc1cc(NC(=O)COc2ccc(C(=S)N3CCCC3)cc2)ccc1Br	i
CCC(C)N1CCN(C(=O)Cc2ccccc2)CC1 (stereo not given)	i
O=C(CS(=O)(=O)c1ccccc1)Nc1ccccn1	i
O=C(O)CSc1nnc2n(-c3ccccc3)c3ccccc3n12	i
COCCn1c(COc2ccc(OC)cc2)nc2ccccc21	i
S=C(NCCc1ccccc1)Nc1ccc(Cl)cc1	?
COc1ccc(OC)c(NC(=S)NC(NC(=O)CC(C)C)C(Cl)(Cl)Cl)c1 (stereo not given)	i
COC(=O)Cn1cnc2scc(-c3ccc(C)c(C)c3)c2c1=O	15.6%
O=S(=O)(Nc1ccc(-c2ccccc2)cc1)c1ccc(F)cc1	i
CCNC(=O)Cc1c(OC)ccc2cc(Br)ccc12	i
COc1cc(C(=O)NCC(=O)OCc2ccccc2Cl)cc(OC)c1OC	i
O=C(O)CCSc1nnc2c(n1)[nH]c1ccccc12	i
CC(C)C(=O)Nc1cccc(C(=O)Nc2ccc(S(=O)(=O)N3CCCC3)cc2)c1	i
Cc1ccccc1CNC(=O)CN(c1cccc(Cl)c1)S(=O)(=O)c1ccc(Cl)cc1	0.4%
O=C(CN(Cc1c(Cl)cccc1Cl)S(=O)(=O)c1ccc(Cl)cc1)NCc1cccnc1	i
C=CCn1c(SCC(=O)Nc2nc3ccccc3s2)nnc1-c1ccccc1Cl	9.5%
CC(=O)c1c(C)oc(C)c1CSCc1ccc(C(=O)O)o1	i
CCN(CC)C(=O)COc1ccc2oc(-c3ccco3)cc(=O)c2c1	i
O=C(NCc1ccccn1)C1COc2ccccc2O1 (stereo not given)	i
O=C(Nc1cccc(Cl)c1Cl)[C@H]1CC=CC[C@H]1C(=O)O	i
CCOC(=O)C1=C(c2ccccc2)NC(=S)NC1c1cccc(OCC)c1 (stereo not given)	i
O=C(CSc1nc2ccccc2c(=O)n1Cc1ccccc1)N1CCOCC1	i
O=C(Nc1nc(-c2ccc(S(=O)(=O)N3CCOCC3)cc2)cs1)c1ccccc1F	i
O=C(NCCCN1CCCC1=O)c1csc2ccccc12	i
Cc1ccc(S(=O)(=O)N(CC(=O)NCc2cccnc2)c2cccc(C)c2C)cc1	i
COc1cc(C(=O)N2CCN(C(=O)c3cccc(Cl)c3)CC2)cc(OC)c1OC	i
COc1cc(NC(=S)NCCc2ccc(S(N)(=O)=O)cc2)cc(OC)c1	i
Cc1cccc(C(=O)Nc2ccc(S(=O)(=O)Nc3cnc4ccccc4n3)cc2)c1	i
CCC(CC)C(=O)NCCNC(=O)C(CC)CC	i
CCOC(=O)c1ccc(NC(=O)N2CCCCC2)cc1	i
CC(C)(C)C(=O)CSc1nnc(-c2ccco2)n1Cc1ccco1	0.5%

# A second format for part of the listing above.
COc1cc(NC(=S)NCCc2ccc(S(N)(=O)=O)cc2)cc(OC)c1
  Mtb growth: i

Cc1cccc(C(=O)Nc2ccc(S(=O)(=O)Nc3cnc4ccccc4n3)cc2)c1
  Mtb growth: i

CCC(CC)C(=O)NCCNC(=O)C(CC)CC
  Mtb growth: i

CCOC(=O)c1ccc(NC(=O)N2CCCCC2)cc1
  Mtb growth: i

# (list continues)
Molecule	Mtb growth
CCc1c(C)sc(NC(=S)N2CCN(c3ncccn3)CC2)c1C(=O)OC	i
COc1cc(C(=O)NCC2CCCO2)cc(OC)c1OC (stereo not given)	i
Cc1cc(C(=O)N2CCN(S(C)(=O)=O)CC2)cs1	i
COc1cccc(NC(=S)Nc2ccccc2OC)c1	i
CCOC(=O)C1=C(C)NC(=S)NC1c1cccc(OCC)c1 (stereo not given)	i
CCOc1ccc(Br)cc1S(=O)(=O)N1CCN(c2ccc(F)cc2)CC1	i
Cn1c(SCC(=O)NCc2ccco2)nnc1-c1c[nH]c2ccccc12	i
Cc1ccc(CNc2oc(-c3ccccc3F)nc2C#N)cc1	1.7%
COc1cccc(NC(=O)CCC2CCCC2)c1	i
N/C(=N\OC(=O)CC1CCCCC1)c1ccccc1	i
COc1ccc(-n2c(SCC(=O)Nc3ccc4c(c3)OCCO4)nc3ccccc3c2=O)cc1	i
COc1ccc(S(=O)(=O)NCCN2CCOCC2)cc1	i
COc1ccc(-c2csc(Nc3cccnc3)n2)cc1OC	i
CCOC(=O)c1c(NC(=O)c2nn(CC)cc2Br)sc(C)c1C	i
CC1=C(C(=O)OCC2CCCO2)C(c2cc(F)ccc2F)C2=C(CC(c3cccs3)CC2=O)N1 (stereo not given)	25.0%
COc1ccccc1COc1ccc2c(=O)c(-c3ccc([N+](=O)[O-])cc3)coc2c1	i
Cc1ccccc1-c1nnc(SCC(=O)Nc2ccccc2F)n1C	i
CN1C/C(=C\c2cccnc2)C(=O)/C(=C/c2cccnc2)C1	?
COCCn1c(-c2ccccc2F)n[nH]c1=S	i
Cc1nc(Nc2ccc(Cl)cc2Cl)sc1C(=O)Nc1ccccc1	?
Cc1cccc(C(=O)Nc2ccc(Cl)cc2)c1	i
O=C1CC(NCc2cccnc2)C(=O)N1c1ccc(Br)cc1 (stereo not given)	2.2%
Cc1ccn2cc(-c3cccc(NS(=O)(=O)c4ccccc4)c3)nc2c1	i
COc1cccc(CNC(=O)c2ccccc2N)c1	i
COc1cccc(NC(=O)CN2CCN(C)CC2)c1	i
C=CCn1c(SCC(=O)Nc2ccc(C)c(C)c2)nnc1-c1ccccc1O	i
CS(=O)(=O)N(CC(=O)Nc1ccc(F)c(Cl)c1)Cc1ccccc1	i
O=C1CC(Sc2nnc(SCc3ccc(Cl)cc3)s2)C(=O)N1c1ccccc1 (stereo not given)	i
COC(=O)c1ccc(NC(=O)/C(=C/c2ccccc2)c2ccccc2)cc1	?
CCOC(=O)c1ccc(NC(=S)NNC(=O)c2ccc(Br)o2)cc1	1.6%

# Molecules above that have a nitro group on carbon:
Molecule	Mtb growth
N#CCOc1ccc(C23CC4CC(CC(C4)C2)C3)cc1/C=C/c1nc(O)c([N+](=O)[O-])c(=O)[nH]1	38.2%
N#C/C(=C/c1ccc(Cl)s1)c1ccc([N+](=O)[O-])cc1	i
COc1ccccc1COc1ccc2c(=O)c(-c3ccc([N+](=O)[O-])cc3)coc2c1	i
